Screens deposited in PubChem by Southern Research Specialized Biocontainment Screening Center.
Mtb betalactam: beta-lactam sensitization of Mtb H37Rv; inhibition, % at 25 µM; M. tuberculosis H37Rv growth with meropenem, percent inhibition; hits of this screen are not shown here; AID 434955; 0.27% of 330,000 active;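 active = about 74% or more and at least 40 points above the plate without the antibiotic, then above 30% in a dose series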;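 also: growth measured after seven days incubation then overnight dye step; 0% = bacteria only wells and 100% = bacteria with antibiotic; twin plates without the antibiotic show which effects depend on it; some results filed as inactive read as strong as hits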
Numbers without * were called inactive. Not all compounds are listed, so the mix of outcomes need not match the whole.

SMILES	Mtb betalactam
COc1ccc(CC(=O)OC(C)C(=O)Nc2c(C)n(C)n(-c3ccccc3)c2=O)cc1OC (stereo not drawn)	0
CN(CC(=O)NCCc1ccccc1)CC(=O)Nc1cccc(F)c1	-1
Cc1ccc(C2(C)NC(=O)N(CC(=O)N3CCN(S(=O)(=O)c4cccc([N+](=O)[O-])c4)CC3)C2=O)cc1 (stereo not drawn)	-7
Cc1nc(Cc2nnc(SCC(=O)N3CCN(c4ccc(F)cc4)CC3)o2)cs1	-5
Cc1ccccc1-c1nnc(SCC(=O)Nc2cccnc2Cl)o1	-4
Cc1cccnc1NC(=O)c1cccc(NC(=O)CC2SC(N3CCCCC3)=NC2=O)c1 (stereo not drawn)	3
COc1ccc([C@H]2CC(=O)C=C(c3cccc(CO)c3)C2)cc1OC	8
O=C(CSc1nc2ccccc2c(=O)n1CCCN1CCOCC1)Nc1ccccc1OC(F)F	-3
COc1ccc(S(=O)(=O)N2CCCCCC2)cc1NC(=O)c1ccccc1F	-1
CCN(c1ccc(NC(=O)COC(=O)/C=C/c2ccco2)cc1)C(C)C	74
O=C(O)c1cc(NS(=O)(=O)c2ccc(NCc3ccccc3)c([N+](=O)[O-])c2)cc(C(=O)O)c1	-11
COc1cc(C(=O)OCC(=O)NC2CC2)ccc1OCCC(C)C	5
Cc1ccsc1C(=O)NNC(=O)COc1ccc(Br)cc1	4
CCOC(=O)[C@H](CCc1ccccc1)N[C@@H](C)C(=O)N1C(C(=O)O)C[C@@H]2CCC[C@@H]21 (stereo partly drawn)	1
Cc1noc(C)c1NC(=O)N(C)C[C@H]1Oc2ccc(NS(=O)(=O)c3ccc(F)cc3)cc2C(=O)N([C@H](C)CO)C[C@@H]1C	0
O=C(Nc1ccc(N2CCCCCC2)cc1)c1cccc(S(=O)(=O)N2CCOCC2)c1	-5
O=C(CSc1ccc(S(=O)(=O)N2CCOCC2)cn1)Nc1ccc(OC(F)F)cc1	1
Cc1ccc(NC(=O)CN2C(=O)NC(C)(C3CC3)C2=O)c(C)c1 (stereo not drawn)	-6
NC(=O)[C@@H]1CCCN1C(=O)[C@@H](Cc1cnc[nH]1)NC(=O)[C@@H]1CCC(=O)N1	16
COC(=O)[C@]1(Cc2ccccc2)N[C@H](CN(C)C(=O)Nc2ccc(OC)cc2)[C@@H]2C(=O)N(C)C(=O)[C@@H]21	5
Cc1ccc(NC(=O)c2ccc(Cl)c(S(=O)(=O)NCc3ccco3)c2)c(O)c1	-4
CC(Sc1nncn1C)C(=O)NCCC1=CCCCC1 (stereo not drawn)	-1
COC(=O)C1=C(c2ccc(Cl)c(C(F)(F)F)c2)C[C@@H]2CC[C@H]1N2C	-7
Cc1c(NS(=O)(=O)c2cccc(C(=O)N3CCC(C)CC3)c2)c(=O)n(-c2ccccc2)n1C	1
Cc1ccc(-n2c(C)nnc2SCC(=O)N2CCOCC2)cc1	-1
Further results follow.
SMILES	Mtb betalactam
c1ccc(N2CCN(Cc3nc4ccccc4[nH]3)CC2)nc1	1
CCOc1ccc(CCNC(=O)c2ccc(OCc3c(C)noc3C)cc2)cc1OCC	-9
Cc1cccc(C(=O)OCC(=O)c2ccc3c(c2)NC(=O)CO3)c1	7
Cc1cccc(C)c1NC(=O)CN(C)C(=O)C1=COCCO1	-4
CCCCn1c(N)c(N(CC)C(=O)c2ccncc2)c(=O)[nH]c1=O	-7
Cc1cc(OCC(=O)Nc2ccccc2N2CCOCC2)c(C(C)C)cc1Cl	8
CC(C)(C)NC(=O)NC(=O)COC(=O)C1CCN(S(=O)(=O)c2cccs2)CC1	-1
Oc1ccc(Cl)c(Cl)c1	67
O=C(Cn1cc([N+](=O)[O-])ccc1=O)NCC(=O)Nc1ccc(F)c(F)c1F	0
CCN1CCN(c2ccc(S(=O)(=O)N3CCOCC3)cc2NC(=O)C(C)Oc2ccc(F)cc2)CC1 (stereo not drawn)	-6
O=C(CNC(=O)c1ccco1)OCc1ccccc1F	0
O=C(NN=Cc1c(O)ccc2ccccc12)c1ccc2c(c1)OCO2	5
COc1ccc(NC(=O)COC(=O)Cc2ccsc2)c(OC)c1	6
CCC(=O)C(C#N)(c1ccc(OC)c(OC)c1)C(C)C (stereo not drawn)	-1
Cc1ccc(C(=O)NCC(=O)OCC(=O)Nc2ccc(Cl)cn2)cc1	-12
COc1cccc(NC(=O)CN(C)C(=O)c2ccc(-n3cncn3)c([N+](=O)[O-])c2)c1	-2
CSc1ccc(/C=C/C(=O)OCC(=O)N2CCCCCC2)cc1	0
Cc1ccc(S(=O)(=O)NC2CCCCCC2)cc1	4
O=C(Nc1ccc(Cl)cc1F)c1ccc(-n2cncn2)cc1	-5
COc1ccc(C(=O)COC(=O)C(O)c2ccccc2)c(OC)c1 (stereo not drawn)	-7
COc1ccccc1C(=O)NCCC(=O)N1CCN(S(=O)(=O)c2ccc(Cl)cc2)CC1	0
CCOC(=O)C1=C(COC(=O)[C@H](C)NS(=O)(=O)c2ccc(NC(C)=O)cc2)NC(=O)NC1C (stereo partly drawn)	-8
COc1cc(C(C)=O)ccc1OCC(=O)OCC(=O)c1cc(C)n(CC2CCCO2)c1C (stereo not drawn)	1
O=C(CCl)N1CCN(S(=O)(=O)c2ccc3c(c2)OCCCO3)CC1	87
CCN(C(=O)COc1ccc(C(C)=O)cc1)c1cccc2ccccc12	-3

In a second layout: entries from further up
Compound,Mtb betalactam
c1ccc(N2CCN(Cc3nc4ccccc4[nH]3)CC2)nc1,1
CCOc1ccc(CCNC(=O)c2ccc(OCc3c(C)noc3C)cc2)cc1OCC,-9
Cc1cccc(C(=O)OCC(=O)c2ccc3c(c2)NC(=O)CO3)c1,7
Cc1cccc(C)c1NC(=O)CN(C)C(=O)C1=COCCO1,-4
CCCCn1c(N)c(N(CC)C(=O)c2ccncc2)c(=O)[nH]c1=O,-7
Cc1cc(OCC(=O)Nc2ccccc2N2CCOCC2)c(C(C)C)cc1Cl,8
CC(C)(C)NC(=O)NC(=O)COC(=O)C1CCN(S(=O)(=O)c2cccs2)CC1,-1
Oc1ccc(Cl)c(Cl)c1,67
O=C(Cn1cc([N+](=O)[O-])ccc1=O)NCC(=O)Nc1ccc(F)c(F)c1F,0
CCN1CCN(c2ccc(S(=O)(=O)N3CCOCC3)cc2NC(=O)C(C)Oc2ccc(F)cc2)CC1 (stereo not drawn),-6
O=C(CNC(=O)c1ccco1)OCc1ccccc1F,0
O=C(NN=Cc1c(O)ccc2ccccc12)c1ccc2c(c1)OCO2,5
COc1ccc(NC(=O)COC(=O)Cc2ccsc2)c(OC)c1,6
CCC(=O)C(C#N)(c1ccc(OC)c(OC)c1)C(C)C (stereo not drawn),-1
Cc1ccc(C(=O)NCC(=O)OCC(=O)Nc2ccc(Cl)cn2)cc1,-12
COc1cccc(NC(=O)CN(C)C(=O)c2ccc(-n3cncn3)c([N+](=O)[O-])c2)c1,-2
CSc1ccc(/C=C/C(=O)OCC(=O)N2CCCCCC2)cc1,0

(next part)
SMILES	Mtb betalactam
CN(CC(=O)Nc1ccc(F)c(F)c1F)C(=O)c1ccc2c(c1)NC(=O)CS2	4
O=C(NCCOc1ccccc1)c1cccc2c1C(=O)c1ccc(Cl)cc1S2(=O)=O	-3
Cc1nc2ccc(NC(=O)C3=NN(C)C(=O)CC3)cc2s1	-9
COc1ccc(C(=O)OC(C)C(=O)NC2CCCC2)cc1S(=O)(=O)N1CCOCC1 (stereo not drawn)	2
O=C(CN1C(=O)NC(c2ccccc2)(c2ccccc2)C1=O)N1CCN(c2ccccc2F)CC1	-3
Cc1ccc(C)c(NC(=O)COC(=O)c2cc3ccccc3oc2=O)c1	7
CCCCn1nc(C(=O)Nc2c(C)n(C)n(-c3ccccc3)c2=O)c2ccccc2c1=O	-9
CCOC(=O)CN(C(=O)CNC(=O)c1ccco1)C(C(=O)NC1CCCCC1)c1cccnc1 (stereo not drawn)	-10
CC(CNC(=O)CN1C(=O)NC2(CCOc3ccccc32)C1=O)c1ccccc1 (stereo not drawn)	-7
COc1ccc(C(=O)COC(=O)CN2C(=O)C3CC=CCC3C2=O)c(OC)c1 (stereo not drawn)	-5
CC(C)(CNCc1ccccc1)NS(=O)(=O)c1ccccc1	-13
Cc1ccc(NC(=O)c2ccc3c(c2)OCO3)cc1S(=O)(=O)N1CCOCC1	15
COc1ccc(CNC(=O)COC(=O)c2nc3nc(C)cc(C)n3n2)cc1	-2
CCCN(CCC)C1CCc2ccc(O)cc2C1 (stereo not drawn)	0
Cc1nc(C)c(-c2csc(Nc3ccc(N)cc3)n2)s1	-6
O=C(O)c1cc(NS(=O)(=O)c2cccs2)cc(NS(=O)(=O)c2cccs2)c1	4
Cc1nn(C)c(C)c1NC(=O)COc1ccc(F)cc1Br	-4
Cc1ccc(S(=O)(=O)N2CCC(C(=O)NCc3ccccc3CN3CCCC3)CC2)cc1C	-2
COC(=O)c1c(-c2ccc(OC)cc2)sc2ccc(-c3ccc4c(c3)OCO4)cc12	4
C[C@H](CO)N1C[C@H](C)[C@@H](CN(C)C(=O)Nc2ccc3c(c2)OCO3)Oc2ccc(NS(=O)(=O)c3ccccc3)cc2C1=O	-9
CC1CCN(c2ccc(NC(=O)C3CCCN3S(=O)(=O)c3ccc(F)cc3)cc2)CC1 (stereo not drawn)	46
CCOc1ccc(S(=O)(=O)/N=C(/Nc2ccc(S(N)(=O)=O)cc2)c2ccccc2)cc1	-2
Cc1onc(-c2ccccc2Cl)c1C(=O)Nc1cccc(S(=O)(=O)N2CCOCC2)c1	7
C[C@@H]1CN([C@@H](C)CO)C(=O)Cc2cc(NS(=O)(=O)c3ccccc3)ccc2O[C@H]1CN(C)S(C)(=O)=O	-3
COC(=O)c1ccc2c(=O)[nH]c(COC(=O)c3[nH]c(C)c(C(C)=O)c3C)nc2c1	-4
More compounds:
SMILES	Mtb betalactam
Cc1[nH]nc(C(F)(F)F)c1CCC(=O)NC1CCCCCC1	-11
O=C(Cc1cccs1)NNC(=O)c1ccccc1Cl	0
O=C(NNC(=O)c1cc2ccccc2o1)c1ccncc1	88
Cc1csc(NC(=O)CCCNC(=O)c2ccc(Cl)cc2)n1	1
Cc1ccc(CC2C(=O)N(c3cc(C)ccc3C)C(=O)C2C)cc1 (stereo not drawn)	-2
COCC(C)n1c(C)cc(C(=O)COC(=O)c2nn(C)c(=O)c3ccccc23)c1C (stereo not drawn)	-1
CC(C)(C)[C@H]1CCC(=O)N([C@H](CSc2ccc(Br)cc2)Cc2ccccc2)CC1	1
COc1cccc(/C=C/C(=O)NNC(=O)c2ccco2)c1OC	2
CC(=O)N1CCN(CC(=O)Nc2cc(S(=O)(=O)N3CCCCC3)ccc2C)CC1	-1
COC(=O)C1=C(c2ccc(F)cc2F)C[C@@H]2CC[C@H]1N2C(=O)NCc1ccc(F)cc1	1
CCCCNC(=O)c1nn2c(C(F)(F)F)cc(-c3ccc(OC)cc3)nc2c1Br	1
Cc1noc(C)c1NC(=O)Nc1cccc2c1O[C@@H](CN(C)C)[C@@H](C)CN([C@H](C)CO)C2=O	0
O=C(N/N=C/c1ccco1)c1cccc(NC(=O)c2ccccc2Cl)c1	-7
CN(Cc1ccccc1)C(=O)c1ccc(NC(=O)Cc2cccc(NC(=O)C3CCN(C(=O)C4CCC4)CC3)c2)cc1	-6
CCOc1ccc(C(=O)NNC(=O)CN2C(=O)NC3(CCCC3)C2=O)cc1	-8
N#CC1(NC(=O)CN2C(=O)c3ccc([N+](=O)[O-])cc3C2=O)CCCCC1	2
CCN(C[C@H]1N[C@@](C)(C(=O)OC)[C@H]2C(=O)N(Cc3ccccc3)C(=O)[C@@H]12)C(=O)c1ccc(F)cc1	-1
CC(C)(C)OC(=O)C[C@@H]1C/C=C\C[C@@H](CC(=O)N(CCO)Cc2ccccc2)C(=O)NCCOC1=O	-10
COc1ccccc1Nc1nnc(SCC(=O)NC2CC2)s1	1
O=C(NCCc1ccco1)c1cc(COc2cccc(C(F)(F)F)c2)on1	10
C=CC[C@H](CC(=O)N(CCO)Cc1ccccc1)C(=O)N[C@H](COC(=O)[C@@H](CC=C)CC(=O)OC(C)(C)C)c1ccccc1	7
COc1ccc(-c2c(-c3cc(OC)cc(OC)c3)n(C)c3ccc(-c4cccc5[nH]ccc45)cc23)cc1	3
O=C1NCCOC(=O)[C@H](Cc2ccc(F)cc2)C/C=C\C[C@H]1CC(=O)N(CCO)Cc1ccccc1	-2
N#Cc1cc([N+](=O)[O-])ccc1NC(=O)COC(=O)C1CCC(=O)N1 (stereo not drawn)	-8
Cc1cc(S(=O)(=O)N2CCCC2)ccc1OCC(=O)Nc1ccc(C(N)=O)cc1	-2
Following part.
SMILES	Mtb betalactam
Cc1noc(C)c1NC(=O)N(C)C[C@@H]1Oc2ccc(NC(=O)Cc3cn(C)c4ccccc34)cc2CC(=O)N([C@H](C)CO)C[C@@H]1C	-5
COc1ccc(OC)c(N/C=C/C(=O)c2ccc(OC)c(OC)c2)c1	33
Cc1ccccc1NC(=O)Cc1nc(COC(=O)COc2ccccc2C(C)C)cs1	-1
CC(C)(OC(=O)c1ccc(C(F)(F)F)cc1)c1cc2ccccc2c(=O)o1	-2
C[C@H]1CN([C@@H](C)CO)C(=O)c2cc(NS(=O)(=O)c3ccc(Cl)cc3)ccc2O[C@@H]1CN(C)CC1CCCCC1	0
COc1ccc(OC)c(CN2CCN(C(=O)Cc3ccccc3)CC2)c1	-4
COc1ccc(C(=O)Nc2nnc(Cc3ccccc3)s2)c(OC)c1	-7
Cc1ccc(NC(=O)c2cccc(-n3cnnn3)c2)cc1Cl	-6
COc1ccc(OCCOc2ccc(S(=O)(=O)N3CCCC3)cc2C(N)=O)cc1	-4
COc1ccc(OC)c(C(=O)COC(=O)c2ccc([N+](=O)[O-])o2)c1	75
C=CCN1C[C@@H](C)N(C(c2ccc(C(=O)N(CC)CC)cc2)c2cccc(OC)c2)C[C@@H]1C (stereo partly drawn)	-5
CCCCCn1c(=O)[nH]c2cc(C(=O)NCCCN3CCCCC3CC)ccc2c1=O (stereo not drawn)	-2
CC(C)[C@H](NC(=O)c1ccccc1F)C(=O)OCC(=O)NC(=O)NC1CCCCC1	5
